Mtb bLac sens: beta-lactam sensitization of Mtb H37Rv; M. tuberculosis H37Rv growth with meropenem, percent inhibition; hits of this screen are not shown here; inhibition, % at 25 µM; hit rate 0.27% among 330,000; AID 434955;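 active = about 74% or more and at least 40 points above the plate without the antibiotic, then above 30% in a dose series; inconclusive = first-round hits that could not be retested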;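 also: growth measured after seven days incubation then overnight dye step; 0% = bacteria only wells and 100% = bacteria with antibiotic; twin plates without the antibiotic show which effects depend on it; some results filed as inactive read as strong as hits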
Arbovirus anti: antivirals against arbovirus infection | arbovirus infection cell-based antiviral screen | inhibition, % at 10 µM | AID 1251 | hit rate 0.37% among 200,000;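 active = inhibition from about 30%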;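 also: bluetongue infection of BSR cells; cell survival read as ATP light after 72 h; 0% = infected wells without compound and 100% = uninfected wells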
YopH inh: inhibitors of Yersinia enterocolitica YopH tyrosine phosphatase | hit rate 0.16% among 140,000 | inhibition, %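 (about 10 µM by stock and volumes)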 | fluorescence Ex485/Em525;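 active = inhibition of 50% or more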;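 also: controls were vehicle for no effect and minimum signal wells for full effect; inactives centre near -20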
Mtb H37Rv: M. tuberculosis H37Rv growth inhibitors, H37Rv strain (AID 1626); M. tuberculosis H37Rv growth inhibition; higher % means a stronger effect; inhibition, % at 10 µM; hits with a dose series show IC50 in µM; hit rate 0.95% among 220,000;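 active = confirmed in a dose series; inconclusive = inhibition above 80% but not taken into the dose series; inactive = below 80% or under 30% at every dose of the series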;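 also: bacteria incubated seven days before Alamar blue readout; 0% = bacteria only wells and 100% = bacteria with antibiotic wells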
RecA intein inh: blocks M. tuberculosis RecA intein splicing; P9WHJ3; cell-free RecA intein splicing, fluorescence; inhibition, %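 (about 9 µM by stock and volumes)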; hit rate 0.75% among 290,000; in the data active = inhibition above about 30%; inconclusive = no clear call, values can overlap the other calls;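 also: 0% = vehicle wells and 100% = reference inhibitor control wells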
Target sequence (P9WHJ3 whole entry, looked up): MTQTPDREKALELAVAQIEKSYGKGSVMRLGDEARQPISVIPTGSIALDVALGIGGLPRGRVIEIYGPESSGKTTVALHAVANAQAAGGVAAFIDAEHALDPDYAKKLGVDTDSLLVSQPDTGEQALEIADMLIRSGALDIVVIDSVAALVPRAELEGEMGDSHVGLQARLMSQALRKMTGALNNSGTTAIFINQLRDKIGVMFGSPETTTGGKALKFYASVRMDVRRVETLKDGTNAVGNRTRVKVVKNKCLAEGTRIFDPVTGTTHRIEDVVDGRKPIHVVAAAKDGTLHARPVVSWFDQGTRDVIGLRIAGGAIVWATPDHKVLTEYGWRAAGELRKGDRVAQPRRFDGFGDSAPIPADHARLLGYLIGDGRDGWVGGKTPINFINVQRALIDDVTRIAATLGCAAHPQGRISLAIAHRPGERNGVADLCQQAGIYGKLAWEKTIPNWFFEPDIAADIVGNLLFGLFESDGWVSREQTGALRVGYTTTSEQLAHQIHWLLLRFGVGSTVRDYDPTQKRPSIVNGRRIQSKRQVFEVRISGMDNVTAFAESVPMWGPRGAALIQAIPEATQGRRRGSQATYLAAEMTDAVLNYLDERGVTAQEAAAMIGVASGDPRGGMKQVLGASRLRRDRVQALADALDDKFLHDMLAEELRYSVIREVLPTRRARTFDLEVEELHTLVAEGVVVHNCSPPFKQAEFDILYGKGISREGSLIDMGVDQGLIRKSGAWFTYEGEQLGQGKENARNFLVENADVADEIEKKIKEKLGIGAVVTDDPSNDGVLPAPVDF
Arbovirus anti repeat: recorded beside Arbovirus anti, whose call it bears; inhibition, %; measured here: 10K subset replicate screen; many hits read low in the repeat;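 first of two repeat runs on a subset; 0% = infected and 100% = uninfected wells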
* hit, by the source's call; ? = inconclusive; . = no result given.

Start of the data: the first 2 compounds, to show the layout:
SMILES	Mtb bLac sens	Arbovirus anti	YopH inh	Mtb H37Rv	RecA intein inh	others
O=C(O)COc1ccc(/C=N/n2c(COc3ccccc3)nc3ccccc3c2=O)cc1	6	-3	-11	9%	-4.8
COc1ccccc1CNC(=O)C1CCCN1S(=O)(=O)c1cccc2cccnc12 (configuration not stated)	-3	2	-8	-13%	.

All compounds of this part (from the top)
SMILES	Mtb bLac sens	Arbovirus anti	YopH inh	Mtb H37Rv	RecA intein inh	others
O=C(O)COc1ccc(/C=N/n2c(COc3ccccc3)nc3ccccc3c2=O)cc1	6	-3	-11	9%	-4.8
COc1ccccc1CNC(=O)C1CCCN1S(=O)(=O)c1cccc2cccnc12 (configuration not stated)	-3	2	-8	-13%	.
O=[N+]([O-])c1ccc(O)c(/C=N/Nc2nc3ccccc3[nH]2)c1	7	-38	-3	17%	21
CCCCCCCOc1ccc(C2CC(=O)N(C)C2=O)cc1 (configuration not stated)	12	.	.	.	-0.3
COc1ccc(OC)c(N2Cc3ccccc3C2)c1	1	2	-10	-10%	2.5
Cc1cccc(Nc2ncnc(N)c2[N+](=O)[O-])n1	-4	3	.	1%	0.9
O=C(CCS(=O)(=O)c1ccc(Cl)cc1)Nc1ccc(F)cc1	5	.	.	.	-1.7
C/C(=N\NC(=O)c1ccc(C)cc1C)c1ccc2c(c1)OCO2	-3	-5	-24	-3%	-0.7
Cc1cc(NC(=O)C2CCCN2C(=O)Nc2cccc(Cl)c2)ccc1-n1cnnn1 (configuration not stated)	-2	-7	.	2%	-0.5
O=C(COc1ccc(Cl)cc1)NCC(=O)N1CCC2(CC1)NCCc1[nH]cnc12	-9	.	.	.	-2.6
COc1cccc(NC(=O)[C@H](C)NC(=O)C2CCN(S(=O)(=O)c3ccc(C)cc3)CC2)c1	0	.	.	-5%	-0.5
O=C(NC(NC(=S)Nc1cccc(Cl)c1)C(Cl)(Cl)Cl)OCc1ccccc1 (configuration not stated)	6	-22	-42	7%	14
O=C(NCc1ccccc1F)C1CCCN1C(=O)NC1CCCCC1 (configuration not stated)	0	1	-7	-6%	0.8
Cc1ccc2c(c1)N(CC(=O)N1CCc3ccccc3C1)C(=O)CO2	-9	5	-32	-12%	1.2
COc1cc2[nH]c(=S)n(N(C(C)=O)C(C)=O)c(=O)c2cc1OC	3	4	-26	-6%	-0.6
COCCn1c(C)cc(C(=O)CSc2nnc3ccccn23)c1C	5	3	.	-1%	-2.0	Arbovirus anti repeat=-1
O=C(NCc1ccc(F)cc1F)c1cc(COc2c(F)cccc2F)on1	3	0	.	6%	-3.4
COc1ccccc1CN1CCC(n2nccc2NC(=O)CCOc2ccccc2)CC1	-14	.	.	.	-1.4
Cc1ccc(OCC(=O)N2CCN(C)CC2)c(Br)c1	-8	7	0	1%	1.9
O=C(O)C1CCN(C(=O)c2cc(F)cc3c2OCOC3)CC1	-5	.	.	-1%	0.5
COc1ccc(OC)c(Cc2nnc(CCC(=O)N3CCC(N4CCCCC4)CC3)o2)c1	-3	4	.	.	-0.1
CC(=O)c1c(C)oc2ccc(NS(=O)(=O)c3ccc(F)cc3C)cc12	6	.	.	.	2.3
CC(C)(C)c1ccc(C(=O)NC(=S)N2CCCC2)cc1	97	.	.	.	1.7
CCn1nccc1C(=O)Nc1ccc(Cl)c(Cl)c1	5	5	-17	-9%	4.0
CCOC(=O)c1sc(=S)n(C)c1NC(=O)c1ccccc1C	47	-5	-37	-17%	-2.0
COc1ccccc1/C=C/C=N/Nc1cccc(C(=O)O)c1	4	.	.	.	-32
CCCC(NC(=O)CNC(=O)C(C)(C)C)C(=O)O (configuration not stated)	-5	-3	-30	1%	1.3
Cc1ccc2c(c1)C(c1ccccc1)N(C(=O)c1ccc(F)cc1)CC(=O)N2 (configuration not stated)	-10	.	.	.	-0.9
CC(C)=CC(=O)OCC(=O)Nc1ccc(F)cc1Cl	-10	-5	-43	-3%	0.1
Clc1ccc(Cl)c(OCCCCN2CCCCC2)c1	-6	.	.	.	-0.9
COC(=O)Cc1c(C)nc2nc(-c3ccc(OC)cc3)[nH]n2c1=O	?	4	-45	-3%	-4.6
N#CC12CNCC1CN=N2 (configuration not stated)	0	.	.	-7%	-1.6
C=CCNC(=S)N/N=C/c1ccc(C)c([N+](=O)[O-])c1	-4	9	-14	77%	.
O=C(O)C1CCN(c2ccc([N+](=O)[O-])cc2[N+](=O)[O-])CC1	-6	.	.	-16%	4.2
Cc1ccc(/C=C2\SC(=S)N(CCCC(=O)Nc3nccs3)C2=O)cc1	3	-8	7	-5%	1.2
COCCn1c(SCC(=O)Nc2sccc2C(N)=O)nnc1-c1ccncc1	14	10	.	-14%	-5.5
O=C(CN=C1NS(=O)(=O)c2ccccc21)OCC(=O)c1cc(F)ccc1F	14	-7	.	-8%	-1.8
O=C(CN1CCN(Cc2cccc(Cl)c2)C1=O)NCc1ccccn1	-5	7	-23	2%	-1.7
CC1=CCC2C(=O)N(c3ccc(S(N)(=O)=O)cc3)C(=O)C2C1 (configuration not stated)	0	.	.	-6%	-1.0
COc1ccc(C(=O)NCC(=O)OCC(=O)NC2CCCC2)cc1	4	4	.	0%	-1.1
CCn1c(C(O)c2cc(OC)ccc2OC)nc2ccccc21 (configuration not stated)	-4	.	.	.	0.4
O=C(Nc1ccccc1)Nc1ccc2c(c1)CCC2	-3	.	.	.	2.3
CC1C(=O)NN=C1C(=O)N/N=C\c1ccc(O)cc1O (configuration not stated)	7	-10	-26	-5%	-6.8
CCOc1cc(C(c2c(C)[nH][nH]c2=O)c2c(C)[nH][nH]c2=O)cc(Br)c1OC	10	.	.	.	93*
O=C(Cn1[nH]c(=O)c2ccccc2c1=O)Nc1ccc2c(c1)CCC2	-3	7	-21	6%	-1.0
O=[N+]([O-])c1ccccc1S(=O)(=O)N1CCN(c2ccccc2)CC1	1	.	.	.	0.8
CC(Cl)C(=O)c1c[nH]c2ccccc12 (configuration not stated)	-2	7	.	6%	0.6
Cn1c(=O)c2[nH]c(N=Nc3ccc(N)cc3N)nc2n(C)c1=O	-12	.	.	3%	-1.5
CN(c1ccc(OCC(=O)OCC(=O)Nc2ccccc2)cc1)S(=O)(=O)c1ccc(F)cc1	-8	2	-30	-2%	3.5
CCOC(=O)C1(CCCc2ccccc2)CCN(C(=O)CCN2CCCCC2=O)CC1	3	7	.	2%	1.3
c1coc(CNc2c3c(nc4ncnn24)CCCC3)c1	4	28	-33	2%	-1.7	Arbovirus anti repeat=43
NC(=O)C1(NC(=O)[C@@H]2CC3(CC(c4cccc(NC(=O)[C@@H]5CCC(=O)N5)c4)=NO3)CN2C(=O)c2cnccn2)CC1 (some centres not stated)	-1	-2	-34	-10%	-0.8
CC(NCc1cccs1)c1ccccc1 (configuration not stated)	4	-3	.	5%	1.5
O=C(O)COc1ccc2occ(C(=O)c3ccccc3)c2c1	99	6	-8	46%	-2.7
O=C(NCc1ccncc1)C(=O)NCC1OCCN1S(=O)(=O)c1ccc(Cl)cc1 (configuration not stated)	-6	.	.	.	-0.3
CCCCC(=O)Nc1ccc(C(=O)Nc2cccnc2)cc1	-2	3	-4	-2%	1.3
Cc1ccc(-n2nc3c([n+]2[O-])CCc2c-3no[n+]2[O-])cc1	2	-16	-12	-4%	9.2
COc1cc(OC)c(C2SCCCS2)cc1OC	6	1	-43	-1%	1.9
O=C(CN1CCOCC1)Nc1ccc(Cl)cc1	12	.	.	.	-0.6
COCCNC(=O)c1ccccc1NC(=O)c1ccccc1N(C)S(C)(=O)=O	2	6	-27	-1%	-4.5
Next section
SMILES	Mtb bLac sens	Arbovirus anti	YopH inh	Mtb H37Rv	RecA intein inh	others
Cc1cccc(N2CCN(C(=O)c3cc4c(=O)[nH]c5ccccc5c4n3C)CC2)c1C	53	.	19	22%	-3.6
CC1(C)N=C2C(=[N+]1[O-])CCC/C2=N\O	-7	-5	-37	-4%	0.5
Cc1ccc(S(=O)(=O)Nc2cccc3ncccc23)cc1	-4	.	.	2%	-5.5
O=C(N/N=C/c1ccccc1F)c1csc2c1CCCC2	-8	-5	-15	-3%	0.5
O=C(O)c1ccc(-n2cccn2)c([N+](=O)[O-])c1	-2	1	.	-2%	-3.9
Cc1cc(C(=O)CCC(=O)N2CCN(c3ccccc3F)CC2)c(C)s1	-2	5	.	2%	1.5
Cc1ccc(S(=O)(=O)/N=C(/Nc2cccc(C(=O)O)c2)c2ccccc2)cc1	1	.	.	.	1.8
COCCNC(=O)c1ccc(CS(=O)(=O)c2ccccc2C)o1	2	.	.	.	-0.5
CC1(C)COC2(OC1)C(=O)N(CN1CCOCC1)c1ccccc12	0	-1	.	1%	-1.7
CCCNC(=O)CN1CCC(c2nc3ccccc3[nH]2)CC1	0	.	.	.	-1.1
CC1(C)Cc2c(C#N)c(SCC(=O)O)nc(N3CCOCC3)c2CO1	-1	.	.	.	0.8
Cc1ccn2c(NCc3ccccc3)c(-c3cccs3)nc2c1	5	2	.	6%	-13
OC(COCc1ccc(Cl)cc1)CN1CCCCC1 (configuration not stated)	-1	.	.	.	0.3
O=C(c1cc(-c2ccc(Cl)cc2)nc2ccccc12)N1CCC1	9	.	.	.	1.6
COc1ccc(C(=O)N/C(=C\c2ccco2)C(=O)OCc2ccco2)cc1	-8	.	.	-1%	-6.1
CCc1ccccc1NC(=O)CCN1C(=O)C2CC=CCC2C1=O (configuration not stated)	-8	.	.	.	0.6
Cc1ccc(C)n1-c1ccc(C(=O)NN)cc1	4	3	-5	?	-0.9
CCCCn1c(Cn2nc(C(=O)O)c3ccccc3c2=O)nc2cc(S(N)(=O)=O)ccc21	-3	.	.	.	-1.7
COc1ccc(N(CC(=O)Nc2cccc(SC)c2)S(C)(=O)=O)cc1	0	4	-25	4%	0.6
CCNc1nc2[nH]c(=O)c3c(c2s1)OC(N)=C(C#N)C3c1cccs1 (configuration not stated)	3	0	0	.	-2.6
Cc1cc(C)cc(-n2c(C)cc(/C=N/NC(=O)c3ccncc3)c2C)c1	99	-3	.	?	-2.0
O=C(O)Cc1ccc(NC(=O)c2cnccn2)cc1	-6	-1	.	2%	-1.2
Cc1ccc(C(=O)Nc2ccc(CC(=O)O)cc2)o1	-11	4	7	-7%	-0.4
O=C(c1cc(Cl)ccc1Cl)N1CCN(Cc2ccccc2)CC1	-8	.	.	.	-0.5
CCOC(=O)N1CCN(CC(O)COCC2=CCC3CC2C3(C)C)CC1 (configuration not stated)	3	3	-37	-1%	0.3
CC(=O)NCCc1ccc(S(=O)(=O)Nc2ccc3c(c2)OCCO3)cc1	-7	.	.	.	-0.8
Cc1cc(NC(=O)CCC(=O)N(c2ccccc2)C(C(=O)NC2CCCC2)c2ccccc2C)no1 (configuration not stated)	3	.	.	.	1.8
O=S(=O)(CCc1ccncc1)C1Cc2cccc3cccc1c23 (configuration not stated)	-7	.	.	-3%	1.2
C/C(=N\N1CCN(C)CC1)c1ccc(OC(F)F)cc1	9	-2	.	6%	-4.9
O=C(CS(=O)(=O)c1cn(Cc2cccc(F)c2)c2ccccc12)N1CCCCC1	-3	-2	6	-4%	0.0	Arbovirus anti repeat=4
CCC(=O)Nc1ccc(S(=O)(=O)N2CCc3ccccc3C2)cc1	4	-1	-43	7%	1.6	Arbovirus anti repeat=8
FC(F)(F)c1nc2ccccc2n2c(-c3ccc(Cl)cc3Cl)nnc12	-5	2	-11	7%	3.5
COc1ccc(/C=N/Nc2ccc([N+](=O)[O-])cc2S(=O)(=O)N2CCN(C)CC2)cc1	2	-8	2	2%	-8.0
COC(CNC(=O)CCc1c(C)nc2c(-c3ccc(F)cc3)c(C)nn2c1C)OC	2	-1	-18	-2%	-3.6
CCCCSCCCNC(=O)Nc1ccc(C)c(C)c1	-10	-3	.	3%	-1.9
COc1ccc(C(=O)NNC(=O)c2ccncc2)cc1[N+](=O)[O-]	-8	.	.	.	-1.3
NC(=O)Cc1c[nH]c2cccc(O)c12	-3	8	7	-5%	-2.2
COc1ccc(C2=NO[C@H]3C[C@](C(=O)NC(C)C)(S(=O)(=O)c4ccccc4)C[C@@H]23)cc1	-9	.	.	.	0.1

7 compounds out of the list, sorted by number of heavy atoms, smallest number first:
SMILES	Mtb bLac sens	Arbovirus anti	YopH inh	Mtb H37Rv	RecA intein inh	others
N#CC12CNCC1CN=N2 (configuration not stated)	0	.	.	-7%	-1.6
O=C(N/N=C/c1ccccc1F)c1csc2c1CCCC2	-8	-5	-15	-3%	0.5
O=C(CCS(=O)(=O)c1ccc(Cl)cc1)Nc1ccc(F)cc1	5	.	.	.	-1.7
COCCn1c(C)cc(C(=O)CSc2nnc3ccccn23)c1C	5	3	.	-1%	-2.0	Arbovirus anti repeat=-1
O=C(Cn1[nH]c(=O)c2ccccc2c1=O)Nc1ccc2c(c1)CCC2	-3	7	-21	6%	-1.0
O=C(COc1ccc(Cl)cc1)NCC(=O)N1CCC2(CC1)NCCc1[nH]cnc12	-9	.	.	.	-2.6
CCCCn1c(Cn2nc(C(=O)O)c3ccccc3c2=O)nc2cc(S(N)(=O)=O)ccc21	-3	.	.	.	-1.7

Compound activity from PubChem BioAssay.

Only part of the results is shown; rates above refer to the full screens.
